GLA inh pH 4.5 – blocks human alpha-galactosidase A at pH 4.5; purified enzyme, 4-MU-alpha-Gal fluorescence, pH 4.5; 230,000 tested, under 10 active; AID 1467; activity change, negative = inhibition, % at 105 µM; inconclusive = small, poorly fitted or top-dose-only inhibition, or a rising curve; inactive = flat fitted curve, though single readings scatter; no compound was filed as active;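 further: 0% = full activity with enzyme and -100% = basal without enzyme; dose as in the result columns while the protocol names 77 µM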
Rango complex inh – inhibitors of Rango-importin beta complex formation; Q14974; Rango CFP/YFP FRET sensor + importin beta, 45 min; Potency, µM (top dose mostly 92.2 µM), without a hit: at the highest dose inhibition of complex formation; 340,000 compounds, 0.031% hits; active = rising FRET ratio curve, often small or poorly fitted; inconclusive = mostly compound fluorescence or quenching in the first reads; inactive = flat curves in all reads;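 further: potency means the concentration at half of the fitted maximal effect; 0% = DMSO wells and 100% = buffer wells lacking importin beta; nearly all actives have a fitted effect of over 15% in size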
Target sequence (Q14974 whole entry, looked up): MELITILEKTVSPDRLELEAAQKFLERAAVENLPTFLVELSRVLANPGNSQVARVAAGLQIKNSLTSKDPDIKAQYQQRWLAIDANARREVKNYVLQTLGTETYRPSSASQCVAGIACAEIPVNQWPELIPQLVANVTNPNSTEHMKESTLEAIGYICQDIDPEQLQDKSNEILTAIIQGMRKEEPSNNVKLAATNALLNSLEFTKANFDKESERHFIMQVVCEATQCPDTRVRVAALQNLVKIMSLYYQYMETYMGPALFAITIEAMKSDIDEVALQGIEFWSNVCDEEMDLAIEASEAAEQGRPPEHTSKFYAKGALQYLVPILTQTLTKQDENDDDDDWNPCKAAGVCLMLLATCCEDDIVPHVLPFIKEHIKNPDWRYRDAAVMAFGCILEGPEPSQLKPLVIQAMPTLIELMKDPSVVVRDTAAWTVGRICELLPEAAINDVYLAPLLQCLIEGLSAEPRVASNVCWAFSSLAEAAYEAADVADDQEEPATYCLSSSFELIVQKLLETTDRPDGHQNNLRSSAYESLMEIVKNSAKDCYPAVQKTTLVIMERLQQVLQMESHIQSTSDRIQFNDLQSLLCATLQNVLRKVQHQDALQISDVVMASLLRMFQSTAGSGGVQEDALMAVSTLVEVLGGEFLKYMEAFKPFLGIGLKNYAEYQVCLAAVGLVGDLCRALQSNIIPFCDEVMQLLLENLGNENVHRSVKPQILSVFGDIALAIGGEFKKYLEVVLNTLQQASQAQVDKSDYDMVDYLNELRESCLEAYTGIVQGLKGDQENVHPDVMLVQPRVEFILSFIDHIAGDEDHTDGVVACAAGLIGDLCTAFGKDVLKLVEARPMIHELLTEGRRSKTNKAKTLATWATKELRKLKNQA
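Inhibition scored from the CFP 486 nm/YFP 530 nm FRET ratio 45 min after adding 0.125 microM importin beta to 50 nM Rango biosensor preincubated 5 min with compound (room temperature, PBS with DTT, Tween-20, BSA). No-importin wells as positive control.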
miR-21 reporter – raises the signal of a miR-21 reporter; 340,000 tested, under 10 active; HeLa miR-21 FLuc reporter, luciferase, 48 h; Potency, µM (series often up to 38.3 µM), for inactives: at the top dose reporter change, positive = more light; AID 2288; active = well fitted rising curve with a large enough effect; inconclusive = small, poorly fitted or top-dose-only effect; inactive = no such curve, though single readings can be large or run the other way;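 further: % of control where 0% means no effect; miR-21 action dims this reporter so a rising signal means less miR-21 action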
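HeLa miR-21-FLuc reporter line, endogenous miR-21; 2000 cells/well in DMEM/10% FBS; compound titration up to ~40uM final, 48 h, 37 degree Celsius; luciferase detection reagent, 15 min lysis, CCD luminescence.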
Rango dissoc inh – prevents RanGTP from dissociating the Rango-importin beta complex; O95149+P62826; Biochemical FRET Rango-importin beta, RanGTP-induced dissociation; Potency, µM (highest dose often 46.1 µM), for the others: top-dose activity change, negative = inhibition; 340,000 compounds, 0.071% hits; AID 540253; active means falling FRET ratio curve, often poorly fitted, with flat reads before Ran was added; inconclusive means other falling curves, or compound fluorescence or quenching; inactive means flat or rising ratio curve;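 further: potency means the concentration at half of the fitted maximal effect; % of control where 0% means no effect; nearly all actives have a fitted effect of over 45% in size; -100% = wells without RanGTP and RCC1; the record marks most hits as doubtful in a second field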
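Compounds sat 5 min at room temperature with 0.1 uM Rango biosensor plus 0.25 uM importin beta, then FRET pre-read. RanGTP-RCC1 (0.6 uM Ran, 2mM GTP, 0.2 uM RCC1) added for 45 min, and the CFP/YFP post-read measured blocked complex dissociation.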
The depositor's hits bear a star; ? = inconclusive; nt = no result given; & = joins results of further samples; [ ] = remark or other dose.

no. | Structure | GLA inh pH 4.5 | miR-21 reporter | Rango dissoc inh | Rango complex inh
1 | COC(CNC(=O)C1CCCN(S(=O)(=O)c2ccc3c(c2)oc(=O)n3C)C1)OC (centres undefined) | nt | -1% | -13% | 0.5%
2 | CCc1ccc2nc(NC(=O)c3ccc(N4C(=O)CCC4=O)cc3)sc2c1 | -4 | -33% | 1% | -2.7%
3 | COc1ccc(-c2ccc(=O)n(CC(=O)NC3CCc4ccccc43)n2)cc1OC (centres undefined) | 3 | -19% | 12% | 0.2%
4 | CCc1cccc(CC)c1NC(=O)CCCSc1nc2ccccc2s1 | -17 | -4% | -2% | 1.2%
5 | Cn1nc(C(F)(F)F)c(/C=N/OC(=O)c2ccccc2Cl)c1SCc1ccc(Cl)cc1 | -4 | -4% | 29% | 1.5%
6 | O=C(NC1CCCCC1)N1CCN(C2CCCCC2)CC1 | 3 | -6% | -7% | ?
7 | CN(c1ccccc1C(=O)Nc1ccc2c(c1)OCO2)S(C)(=O)=O | 4 | -9% | 3% | 3.2%
8 | COc1cccc(NC(=O)CCSc2ccc(C)cc2)c1 | -13 | -12% | -7% | 6.1%
9 | CC1CN(C(=O)c2ccccc2C(=O)c2ncc[nH]2)CC(C)O1 (centres undefined) | 2 | 1% | 0% | -0.2%
10 | O=C(NCC(=O)N1CCN(S(=O)(=O)c2c(F)cccc2F)CC1)c1ccccc1F | nt | nt | 27% | -2.3%
11 | Nc1nc2n(n1)C(c1ccco1)CC(c1ccc(Cl)cc1)N2 (centres undefined) | -2 | -2% | 2% | 0.0%
12 | CCCOC(=O)c1ccc(NC(=O)c2cccc(S(=O)(=O)N3CCN(C(C)=O)CC3)c2)cc1 | nt | 18% | -12% | -4.5%
13 | COc1ccc(N=C2S/C(=C\c3ccc(OC(C)C(=O)O)c(OC)c3)C(=O)N2CCc2c[nH]c3ccccc23)cc1 (centres undefined) | -9 | -1% | 0% | -0.3%
14 | Cc1cc(C)c2c(c1)C1C=CCC1C(c1ccc(S(=O)(=O)N3CCOCC3)cc1)N2 (centres undefined) | 0 | -2% | 0% | 0.2%
15 | COc1cccc(-c2nn(-c3ccccc3)cc2C(=O)n2nnc3ccccc32)c1 | 3 | -2% | -8% | -0.7%
16 | COc1cc(S(=O)(=O)N2CCC(O)(c3cccc(C(F)(F)F)c3)CC2)ccc1-n1cnnn1 | -10 | -17% | 1% | -0.7%
17 | O=C(NCc1ccco1)c1ccc(Cl)cc1[N+](=O)[O-] | nt | -3% | 4% | -2.3%
18 | Cc1ccc(Nc2nc(Cl)nc3ncn(C)c23)c(C)c1 | nt | nt | -4% | 1.0%
19 | CC(=O)Nc1ccc(NC(=O)CSc2nnc(CC(C)O)n2-c2ccccc2)cc1 (centres undefined) | nt | -1% | 22% | 0.1%
20 | COc1ccc(CNC(=O)CSc2nc3ccccc3n2C(C)=O)cc1 | nt | -6% | -22% | 2.6%
21 | C/C(=N\NC(=O)c1nnn(-c2nonc2N)c1CN(C)c1ccccc1)c1ccccn1 | nt | 28% | 11% | -0.5%
22 | Cc1cc(=O)oc2cc(Nc3ccccc3)ccc12 | -2 | -56% | ? | ?
23 | O=C1CCCC2=C1C(c1cccs1)n1nc(SCc3ccc(C(=O)O)cc3)nc1N2 (centres undefined) | 19 | 1% | ? | -0.4%
24 | CC(O)CNc1nc2c(c(=O)n(Cc3ccc(Cl)cc3)c(=O)n2C)n1C (centres undefined) | nt | -2%&-4% | 12% | 1.7%
25 | COc1ccc(N(CC(=O)Nc2ccc(C)cn2)S(=O)(=O)c2c(C)noc2C)cc1 | -1 | 5% | -14% | 0.6%
26 | O=C(c1cccc(S(=O)(=O)Nc2ccccc2Cl)c1)N1CCN(C(=O)c2ccco2)CC1 | 2 | 1% | 8% | -0.5%
27 | COc1ccc(C(C)=O)cc1CSc1nnc(C)s1 | -2 | -8% | -4% | -2.1%
28 | CCOC(=O)C1CCN(Cc2coc3c(Cl)cc(Cl)cc3c2=O)CC1 | 6 | -7% | 3% | -1.1%
29 | CN(CC1CCOCC1)C(=O)CC1C(=O)NCCN1Cc1ccc(F)c(F)c1 (centres undefined) | nt | 0% | -26% | ?
30 | Cc1c(C(=O)NN)nn(-c2ccc(F)cc2)c(=O)c1C#N | nt | 1% | -5% | -1.2%
31 | O=C(c1cc([N+](=O)[O-])ccc1N1CCOCC1)N1CCCCC1 | 5 | -1% | 30% | 0.1%
32 | Cc1ccccc1C(=O)NNC(=O)CCc1ccccc1 | 2 | 4% | 9% | ?
33 | CCCNC(=O)CCn1c(=S)oc2ccccc21 | -9 | -2% | 7% | 0.0%
34 | O=C1CSC(=Nc2ccc(Cl)cc2)N1Cc1ccco1 | -6 | -12% | 1% | 0.1%
35 | Cn1c(=O)c2c(O)c(C=NCc3ccccc3)c(=O)n(C)c2n(C)c1=O | -4 | -3% | -5% | -0.2%
36 | Cc1cc(=O)n2nc(N3CCCC(C(=O)NCc4cccc(Br)c4)C3)sc2n1 (centres undefined) | nt | -7% | -9% | -4.0%
37 | CC1CCc2sc(C(=O)NCC(c3ccco3)N3CCCCC3)cc2C1 (centres undefined) | nt | nt | -4% | -0.9%
38 | CCC(=O)NCCCCNC(=O)CC | 1 | 0% | 1% | 1.5%
39 | COc1ccc(-n2c3c(cc(C(=O)NCc4ccco4)c2=O)C(=O)CC(C)(C)C3)cc1 | -1 | -8% | 0% | -2.0%
40 | N#C/C(=C\C=C\c1ccccc1)C(=O)NCc1cccnc1 | -3 | 0% | 2% | -1.2%
41 | CCC1Nc2ncnc(N3CCCCC3)c2N(Cc2ccc(Cl)cc2)C1=O (centres undefined) | nt | nt | 2% | -0.2%
42 | COCCNC(=O)c1ccc(C)c(NC(=O)C2=C(C)OCCS2)c1 | nt | 0% | -6% | -4.3%
43 | COc1ccccc1C(CNC(=O)CN1C(=O)NC(C)(c2ccc3ccccc3c2)C1=O)N1CCCC1 (centres undefined) | nt | nt | ? | 5.0%
44 | CCOC(=O)c1cnc2c(cnn2C)c1NCCC(O)C(F)(F)F (centres undefined) | -10 | -1% | 6% | 1.2%
45 | Cc1ccc(NC2CCCN(C(=O)c3ccc(-n4ccnc4)cc3)C2)cc1C (centres undefined) | nt | -5% | 21% | -1.6%
46 | CCOc1ccc(-c2nn3c(-c4ccc(F)cc4)nnc3s2)cc1 | nt | nt | 4% | 5.2%
47 | CCc1c(O)nc(SCC(=O)Nc2nc3ccccc3s2)n(-c2ccc(C)cc2)c1=O | 1 | -45% | -11% | 1.1%
48 | CC1(c2cccc(Br)c2)NC(=O)N(CC(=O)Nc2ccc3c(c2)OCCO3)C1=O (centres undefined) | nt | nt | 1% | 8.8%
49 | COc1ccc(C(=O)OCc2c(C)noc2C)cc1 | -6 | 0% | -8% | -1.8%
50 | O=C(CCC(=O)N1CCN(C2CCCC2)CC1)Nc1nnc(C(F)(F)F)s1 | -1 | 0% | 31% | 0.8%

Next entries follow:
no. | Structure | GLA inh pH 4.5 | miR-21 reporter | Rango dissoc inh | Rango complex inh
51 | CCC1CCCCN1C(=O)CCS(=O)(=O)c1ccc2c(c1)CCN2C(C)=O (centres undefined) | nt | -3% | 4% | -0.3%
52 | Cc1cc(C)c(S(=O)(=O)N(C)c2ccccc2)c(C)c1 | -11 | -1% | 5% | 0.9%
53 | c1coc(-c2nnc3sc(C4CCCCC4)nn23)c1 | 0 | -21% | 8% | -5.6%
54 | CCN(CC)S(=O)(=O)c1ccc(C(=O)N2CCN(c3ncccn3)CC2)cc1 | nt | 0% | 6% | 0.4%
55 | Cc1ccc(C(=O)COC(=O)c2ccc(O)cc2)cc1 | 3 | -69% | 0% | 1.1%
56 | CCNC(=S)NNC(=O)c1cc(-c2cccc(OC)c2)nc2ccccc12 | 3 | -17% | 6% | 3.4%
57 | CN(C(=O)CSc1nnc(Cc2ccccc2F)n1N)C1CCCCC1 | nt | nt | 5% | -0.3%
58 | CC(=O)[C@@]1(O)CC[C@H]2[C@@H]3CCC4=CC(=O)CC[C@]4(C)[C@H]3[C@@H](O)C[C@@]21C | -3 | -19% | -2% | -0.2%
59 | COc1ccc(CCC(=O)N2c3ccccc3CC2C)cc1 (centres undefined) | -2 | -32% | 2% | -2.0%
60 | O=C(NCCCN1CCOCC1)/C(=C/c1cccnc1)NC(=O)c1ccccc1 | 0[21.1 µM] | -1% | -9% | 0.4%
61 | COC(=O)COc1ccc(S(=O)(=O)N2CCCCCC2)cc1 | -1 | -4% | -8% | -0.2%
62 | CN(Cc1ccncc1)C1CC(=O)N(c2ccc(F)cc2)C1=O (centres undefined) | 5 | 0% | -22% | 0.4%
63 | Cc1cn(CC(=O)NCc2ccccc2)c(=O)[nH]c1=O | nt | nt | 0% | -0.1%
64 | CC1(C)COC(c2cc3c(cc2Br)OCO3)OC1 | nt | nt | -5% | -0.4%
65 | CCCS(=O)(=O)c1nc(S(=O)(=O)c2ccc(C)cc2)c(NCc2ccco2)s1 | -7 | -1% | 1% | ?
66 | CCCCn1c2c(c(=N)c3c1CCC3)CCC2 | 4 | ? | 21% | -9.6%
67 | Cc1ccc(/C=C2\SC(=S)N(CCCC(=O)N3CCOCC3)C2=O)cc1 | nt | 0% | -1% | -3.9%
68 | CC1CN(CCOCCSc2ccc(Cl)cc2)CC(C)O1 (centres undefined) | nt | -1% | 1% | -2.5%
69 | CN1CCN(CC(=O)NC2CCCCC2)CC1 | 3 | 0% | 9% | 6.5%

2 entries drawn at random from those above, as already listed:
no. | Structure | GLA inh pH 4.5 | miR-21 reporter | Rango dissoc inh | Rango complex inh
67 | Cc1ccc(/C=C2\SC(=S)N(CCCC(=O)N3CCOCC3)C2=O)cc1 | nt | 0% | -1% | -3.9%
60 | O=C(NCCCN1CCOCC1)/C(=C/c1cccnc1)NC(=O)c1ccccc1 | 0[21.1 µM] | -1% | -9% | 0.4%

5 compounds out of the list, ordered by SMILES length, high to low:
no. | Structure | GLA inh pH 4.5 | miR-21 reporter | Rango dissoc inh | Rango complex inh
65 | CCCS(=O)(=O)c1nc(S(=O)(=O)c2ccc(C)cc2)c(NCc2ccco2)s1 | -7 | -1% | 1% | ?
56 | CCNC(=S)NNC(=O)c1cc(-c2cccc(OC)c2)nc2ccccc12 | 3 | -17% | 6% | 3.4%
62 | CN(Cc1ccncc1)C1CC(=O)N(c2ccc(F)cc2)C1=O (centres undefined) | 5 | 0% | -22% | 0.4%
68 | CC1CN(CCOCCSc2ccc(Cl)cc2)CC(C)O1 (centres undefined) | nt | -1% | 1% | -2.5%
66 | CCCCn1c2c(c(=N)c3c1CCC3)CCC2 | 4 | ? | 21% | -9.6%

Only part of the results is shown; rates above refer to the full screens.
